StopGo FLuc = FMDV 2A StopGo reporter, firefly signal. HEK cells with a luciferase reporter of 2A StopGo recoding. Potency, µM (highest dose often 57.5 µM), inactives show at the top dose signal change, negative = less light. 0.23% of 120,000 active. AID 1745856; active = well fitted falling curve with a large enough effect; inconclusive = small, poorly fitted or top-dose-only effect; inactive = no such curve, though single readings can be large or run the other way; note: nearly all actives have a fitted effect of over 60% in size; overnight with compound
2A Renilla = lowers the Renilla signal of an FMDV 2A StopGo reporter | Potency, µM (titrated, usually from 57.5 µM), without a hit: at the top dose signal change, negative = less light | AID 1745857 | HEK cells with a luciferase reporter of 2A StopGo recoding | 0.32% of 120,000 active; active means well fitted falling curve with a large enough effect; inconclusive means small, poorly fitted or top-dose-only effect; inactive means no such curve, though single readings can be large or run the other way; note: nearly all actives have a fitted effect of over 55% in size; overnight with compound
* = called active by the depositor; u = inconclusive; [ ] = dose if it differs, or a comment. % is set by controls: 0 for no effect and ±100 for the full control effect; potency is the fitted concentration of half-maximal effect. Only part of the results is shown; rates above refer to the full screens.

SMILES	StopGo FLuc	2A Renilla
CC1(C)CC(=O)c2cc(C(=O)Nc3ccc(Br)cc3)c(=O)[nH]c2C1	7%	-6%
CC(OC(=O)C1CCN(S(=O)(=O)c2ccc(C(C)(C)C)cc2)CC1)C(=O)N1CCOCC1 (centres undefined)	13%	8%
COc1ccc(OCC(=O)NC(Cc2c[nH]c3ccccc23)C(=O)O)cc1 (centres undefined)	-9%	4%
COc1ccccc1-n1[nH]c(C)c(Cc2ccc(Br)cc2)c1=O	-2%	29%
Cc1ccc(C)c(C(=O)COC(=O)CCc2c[nH]c3ccccc23)c1	-6%	-16%
Cc1ccc(Cl)cc1N1CCN(C(=O)CCC(=O)Nc2ccc3nc(N4CCC(C)CC4)cc(C)c3c2)CC1	17%	42%[activator]
Oc1ccccc1-c1nc(/C=C/c2ccccc2)nn1-c1ccccc1	0%	6%
CCCOc1ccc(NC(=O)C(C)Oc2ccccc2F)c2cccnc12 (centres undefined)	-5%	-9%
CCCC(=O)Nc1cccc(-c2cc3cc(F)ccc3[nH]2)c1	0%	0%
CCOc1ccc(-c2nnc(SCC(=O)NCc3ccc(C)cc3)nc2-c2ccc(OCC)c(OC)c2)cc1OC	-3%	34%[activator]
O=C1Cc2cc(S(=O)(=O)Nc3cccc(C(F)(F)F)c3)cc3c2N1CCC3	-19%	2%
CC(=O)c1ccc(NC(=O)COc2ccccc2-c2nc(-c3cccc(C)c3)no2)cc1	48%[activator]	18%
CCOc1ccc(-n2nc3ccc(NC(=O)COc4ccccc4)cc3n2)cc1	-25%	-1%
CCOc1ccc(OCC(=O)Nc2ccc(S(=O)(=O)Nc3cc(C)on3)cc2)cc1	-17%	4%
CCC(=O)Nc1ccc2nc(SCCOc3ccccc3)sc2c1	11%	-18%
CCOc1ccc(Cn2c(-c3ccc(OCC)c(OC)c3)nc3ccccc32)cc1OC	4%	-10%
O=C(/C=C/c1ccco1)N1CCCC(C(F)(F)F)C1 (centres undefined)	79%[activator]	-1%
CCc1cccc(CC)c1NC(=O)C(Cc1ccccc1)NS(=O)(=O)c1cccc2nsnc12 (centres undefined)	-11%	159%[activator]
Nc1nc(CN2CCN(c3ccccc3)CC2)nc(N2CCCc3ccccc32)n1	-12%	-9%
Cc1ccccc1OCC(=O)OCc1cc(=O)n2nc(C3CC3)sc2n1	1%	0%
CC(C)NC(=O)CN(C)CC(O)COc1cccc(Br)c1 (centres undefined)	-1%	-10%
O=C(NC1CCS(=O)(=O)C1)c1ccc(Cl)c(S(=O)(=O)N2CCCCCC2)c1 (centres undefined)	0%	23%
O=C(Cc1csc2ccccc12)NCc1cccc(Br)c1	66%[activator]	0%
CCCNC(N)=S	21%	8%
CCN(CC)CCCn1c(C)cc2c(c1=O)C(c1ccccc1)C(C#N)=C(N)O2 (centres undefined)	-12%	1%

Next part.
SMILES	StopGo FLuc	2A Renilla
Cc1ccc(-n2c(=O)c3cccnc3n2CC(=O)Nc2ccc(C)cc2Cl)cc1	-11%	-3%
Cc1ccc(SC(=O)c2ccc(F)cc2)cc1	0%	-10%
CCOC(=O)C1CCN(C(=O)c2ccc(NC(=O)c3nsc4ccccc34)cc2)CC1	23%	-4%
Cc1ccc(S(=O)(=O)C(CNC(=O)C(=O)NCc2ccccc2C)c2cccs2)cc1 (centres undefined)	u	u
O=C(NCc1nc2ccccc2[nH]1)c1cccc(Cl)c1	26%	19%
CCOc1ccc(-c2nc(SCC(=O)NCCCOC)c(-c3ccccc3)[nH]2)cc1	72%[activator]	85%[activator]
COc1ccc(N2CCN(C(=O)c3cnn(-c4ccc(F)cc4)c3-n3cccc3)CC2)cc1	-2%	3%
CCOC(=O)c1sc(NC(=O)/C=C/c2ccc(OCC)cc2)c(C(=O)OCC)c1C	-17%	-2%
Cc1ccc(-n2nc(C)c3c(C)cc(=O)n(CC(=O)NC(C)c4ccccc4)c32)cc1 (centres undefined)	-13%	-8%
CSc1nnc(-c2ccccc2NC(=O)c2ccc(C)c(S(=O)(=O)N3CCCC3)c2)o1	7%	0%
Cc1cc(NC(=O)c2ccc3c(c2)N(Cc2cccc(Cl)c2)C(=O)c2ccccc2S3(=O)=O)ccc1Br	11%	-1%
Cc1cc(C(=O)OCC(=O)Nc2cccc3ccccc23)c2ccccc2n1	4%	4%
CN(Cc1cccs1)C(=O)Cc1n[nH]c(=O)c2ccccc12	15%	-1%
COc1ccc(NC(=O)c2ccc3c(c2)CCC3)cc1	170%[activator]	7%
Cc1ccccc1CN1C(=O)c2ccccc2S(=O)c2ccc(C(=O)NCc3ccc4c(c3)OCO4)cc21 (centres undefined)	4%	6%
CCCC(=O)Nc1cccc(-c2nc3cc(C)c(C)cc3o2)c1C	20%	13%
Cc1ccc(S(=O)(=O)N(C)CC(=O)OCc2coc(-c3cccs3)n2)cc1	0%	1%
CCOC(=O)Cc1c(C(=O)OCC)[nH]c2c1C(=O)CCC2	5%	10%
Cc1ccc(Cl)cc1NC(=O)/C(C#N)=C/c1c(C)n(Cc2ccccc2)c2ccccc12	-8%	-6%
CCOc1ccc(C2=NC(c3cccs3)=Nc3ccc(CC)cc3N2)cc1OCC	90%[activator]	-2%
O=C(NC1CCCc2ccccc21)c1cc(Cl)nc(Cl)c1 (centres undefined)	25%	42%[activator]
COc1ccc(Cn2c(=O)[nH]c3cc(C(=O)NCCC(C)C)ccc3c2=O)cc1	0%	-2%
O=C(Nc1ccc2oc(-c3ccccc3)cc(=O)c2c1)c1ccc(F)cc1	0%	2%
CCN(CC)c1cc(C)nc2nc(-c3ccc(C)cc3)nn12	4%	-10%
CC(C)(C)C(=O)NCC(c1ccc2c(c1)OCO2)N1CCOCC1 (centres undefined)	-13%	0%

Of the compounds above, these contain a cyano group.
SMILES	StopGo FLuc	2A Renilla
CCN(CC)CCCn1c(C)cc2c(c1=O)C(c1ccccc1)C(C#N)=C(N)O2 (centres undefined)	-12%	1%
Cc1ccc(Cl)cc1NC(=O)/C(C#N)=C/c1c(C)n(Cc2ccccc2)c2ccccc12	-8%	-6%

Continued:
SMILES	StopGo FLuc	2A Renilla
CCN(C(=O)c1cc(S(=O)(=O)N2CCCCC2)c[nH]1)c1ccc(OC)cc1	-4%	-1%
C=CCOC(=O)COc1ccc2c(=O)c(Oc3ccc(OC)cc3)coc2c1	5%	-3%
COc1ccc(C(=O)NCCc2csc(-c3ccc(Cl)cc3)n2)cc1	-16%	-22%
NS(=O)(=O)c1ccc(N/N=C/C(Cl)=C/c2ccccc2)c([N+](=O)[O-])c1	24%	3%
Cc1ccc(S(=O)(=O)N(CC(=O)NCC(C)C)Cc2c(F)cccc2Cl)cc1	-9%	103%[activator]
CC(=O)c1ccc(C(=O)N(CCc2ccccc2)Cc2ccc(C)s2)s1	0%	0%
Cc1ccc2c(=O)cc(C(=O)Nc3sc4c(c3C(=O)NCc3cccnc3)CCCC4)oc2c1	-6%	-8%
O=C(NC1CCCc2ccccc21)c1cc(-c2cccc(Br)c2)nc2ccccc12 (centres undefined)	15%	8%
CC(C)(CO)NC(=O)C12CC3CC(CC(C3)C1)C2	-1%	1%
COc1ccc(NC(=O)CSc2nc(-c3ccc(F)cc3)c3cccc(C)c3n2)cc1	-14%	-18%
Cc1c(Cl)cccc1NC(=O)c1oc2ccc(S(=O)(=O)N3CCCCCC3)cc2c1C	-15%	-1%
CN1CCN(CCC2(c3ccccc3)CCOC(C)(C)C2)CC1 (centres undefined)	-8%	-6%
CCOC(=O)c1ccc(-c2ccc(/C=C(\C#N)C(=O)Nc3ccc(C)cc3)o2)cc1	15%	-5%
CCN(Cc1cccs1)CC1CCCO1 (centres undefined)	-1%	3%
NC(N)=NCc1ccc(F)cc1	0%	1%
COc1ccc(-c2cc3ncc(C(=O)c4cc(Cl)ccc4O)cn3n2)cc1	-9%	-4%
Cc1oc(-c2ccccc2)nc1CC(=O)NC1CCCCC1	0%	-3%
O=C(CSc1nc2c([nH]c3ccccc32)c(=O)n1-c1ccc(Cl)cc1)NCC1CCCO1 (centres undefined)	-4%	2%
C/C(=N\NC(=O)c1cccc(C)c1)c1ccc(C)s1	168%[activator]	15%
COc1cccc(NC(=O)CCNC(=O)Cn2cnc3ccccc3c2=O)c1	-8%	-7%
Cc1ccc(NC(=O)Nc2nnc(-c3ccccc3)s2)cc1C	23%	-1%
Cc1cccc(-c2c3c(=O)n(C)c(=O)n(C)c3c3n2CCOC3c2coc3ccccc3c2=O)c1 (centres undefined)	-9%	-14%
CCOc1ccc(-c2nc(CSCC(=O)N3CCC(N4CCCCC4)CC3)c(C)o2)cc1	-12%	6%
O=C(O)c1ccc(NCc2ccc(F)cc2)cc1	0%	4%
CCOc1ccc(Nc2ccc3nnc(-c4ccccc4Cl)n3n2)cc1	29%	8%

Complete entries as entered above:
Cc1ccc(NC(=O)Nc2nnc(-c3ccccc3)s2)cc1C in the list: StopGo FLuc: 23%; 2A Renilla: -1%
Cc1cccc(-c2c3c(=O)n(C)c(=O)n(C)c3c3n2CCOC3c2coc3ccccc3c2=O)c1 (centres undefined) in the list: StopGo FLuc: -9%; 2A Renilla: -14%
COc1ccc(-c2cc3ncc(C(=O)c4cc(Cl)ccc4O)cn3n2)cc1 in the list: StopGo FLuc: -9%; 2A Renilla: -4%

The results go on.
SMILES	StopGo FLuc	2A Renilla
Cc1cc(-c2ccc(C)c(S(=O)(=O)N3c4ccccc4CC3C)c2)on1 (centres undefined)	14µM*	u
CCOc1ccccc1NC(=O)c1cc(OC(C)=O)cc(OC(C)=O)c1	-5%	-9%
CCOc1ccc(-c2noc(-c3nnn(-c4cccc(C)c4C)c3N)n2)cc1	-4%	-2%
CC(C)CCNC(=O)c1cnc2sc(N3CCCCCC3)nn2c1=O	5%	5%
Cc1noc(NC(=O)CSc2nccn2-c2ccccc2)n1	-1%	-4%
O=C(CN1C(=O)C2(SCC(=O)N2c2cccc(Cl)c2)c2ccccc21)NC1CCCCC1 (centres undefined)	-7%	u
CCOC(=O)Cc1ccc(NC(=O)Nc2nnc(N(C)Cc3ccccc3)s2)cc1	4%	-13%
CCN(C(=O)c1cc2c(=O)n(CC)c3ccccc3c2s1)c1cccc(C(F)(F)F)c1	-15%	-4%
CC(=O)c1c(C)oc2ccc(N(C(=O)Oc3ccccc3)S(=O)(=O)c3ccc(C(C)(C)C)cc3)cc12	-17%	27%
CCn1nc(C(=O)OCC(=O)NC(=O)NCc2ccccc2)c2ccccc2c1=O	-6%	-11%
Cc1cn2c(=O)cc(COC(=O)c3cccc(NC(=O)COc4ccccc4Cl)c3)nc2s1	u	3%
COC(=O)c1ccc(COC(=O)CCc2ccc3c(c2)OCO3)cc1	-2%	-2%
CC1CCN(S(=O)(=O)c2ccc3c(c2)oc(=O)n3CC(=O)NC(C)c2ccccc2)CC1 (centres undefined)	u	u
Clc1ccc(-c2nc(-c3ccc(Br)o3)no2)c(Cl)c1	0%	-5%
Cc1ccc(-c2cc(NC(=O)C(C)Oc3ccc(C)c(C)c3)on2)cc1 (centres undefined)	26%	-11%
CCc1ccc(CNC(=O)c2cnc(C)cn2)s1	26%	12%
O=C(C(Sc1nncn1-c1ccccc1F)c1ccccc1)N1CCOCC1 (centres undefined)	11%	-2%
CC(=O)Nc1cc(C(=O)NCc2ccccc2)ccc1Sc1ccc(C)cc1	10%	61%[activator]
CSc1nnnn1-c1ccc(C(=O)Nc2ccc(Br)c(C)c2)cc1	33%	-6%
COc1ccc(C2c3c(n[nH]c3C)C(=O)N2c2ccc(C)cc2)cc1 (centres undefined)	0%	0%
CCOc1ccc(NC(=O)C(C)O)c(N)c1 (centres undefined)	5%	0%
O=c1oc2ccccc2cc1-c1cn2cc(Cc3ccccc3F)sc2n1	115%[activator]	1%
CCOc1cccc(C(=O)Nc2scc(-c3ccccc3Cl)c2C(=O)OC)c1	63%[activator]	30%[activator]
CC(=O)Nc1ccccc1-c1nc2ccccc2n(Cc2cccc(Br)c2)c1=O	24%	-1%
COc1ccccc1N1CCN(C(=O)CN2c3ccccc3S(=O)(=O)c3ccccc32)CC1	12%	-6%

(next part)
SMILES	StopGo FLuc	2A Renilla
O=C(Nc1sc2c(c1C(=O)Nc1ccccc1)CCC2)c1ccc(Br)cc1	62%	97%[activator]
COc1ccc(OC)c(CN2CCCCCC2)c1	0%	3%
Cc1ccc(CSc2cn(CC(=O)N3CCCC3)c3ccccc23)cc1	126%[activator]	27%
COc1ccc(OC)c(N2CC(C(=O)O)CC2=O)c1 (centres undefined)	-3%	-5%
Cc1ccc(S(=O)(=O)N2CCN(c3ccc(NCc4ccccc4)nn3)CC2)cc1C	3%	42%[activator]
Cc1ccc(CCC(=O)O)c(C)c1	7%	3%
CCc1c(C)nc2n(c1=O)CN(CCCN(C)C)CN2c1ccccc1OC	0%	28%
O=C(CSc1nc2ccccc2n1Cc1cccc(C(F)(F)F)c1)NCc1ccccc1	-5%	16%
CCOC(=O)c1c(C)oc2nc(C)nc(Nc3cccc(OC)c3)c12	2%	-2%
Cc1cccc(C(=O)Nc2ccccc2C(=O)NCc2ccccc2)n1	-3%	7%
CCCCCCc1ccc(-c2ccc(C(=O)OCC)cc2)nc1	0%	-12%[1.06 µM]
O=C(CSc1nc2c([nH]c3ccccc32)c(=O)n1-c1cccc(C(F)(F)F)c1)N1CCCC1	-20%	-17%
COc1ccc2c(C)c(CC(=O)Nc3cccc(Cl)c3)c(=O)oc2c1	-3%	1%

Quoted at random: five entries already listed
SMILES	StopGo FLuc	2A Renilla
COc1ccc2c(C)c(CC(=O)Nc3cccc(Cl)c3)c(=O)oc2c1	-3%	1%
Cc1ccc(CCC(=O)O)c(C)c1	7%	3%
O=C(CSc1nc2ccccc2n1Cc1cccc(C(F)(F)F)c1)NCc1ccccc1	-5%	16%
COc1ccc(OC)c(N2CC(C(=O)O)CC2=O)c1 (centres undefined)	-3%	-5%
Cc1cccc(C(=O)Nc2ccccc2C(=O)NCc2ccccc2)n1	-3%	7%
